Source: PubChem BioAssay (National Center for Advancing Translational Sciences (NCATS))
VACV mCherry inh: vaccinia inhibition (mCherry reporter). Vaccinia virus mCherry reporter infection, fluorescence; about a quarter of the inactives have no number. Potency, µM (top dose mostly 36.5 µM), for inactives: top-dose activity change, negative = inhibition, actives largely listed as inhibitors. 0.63% of 310,000 active; active = well fitted inhibition curve with a large enough effect; inconclusive = small, poorly fitted or top-dose-only effect; inactive = no such curve, though single readings can be large or run the other way; tested in A549 cells; also: nearly all actives have a fitted effect of over 35% in size; inactives centre near -10
Vaccinia Venus: inhibitors of vaccinia virus (Venus reporter); Vaccinia virus Venus reporter expression, fluorescence; Potency, µM (titrated, usually from 36.5 µM), without a hit: at the top dose activity change, negative = inhibition, actives largely listed as inhibitors; 0.46% of 330,000 active; active means well fitted inhibition curve with a large enough effect; inconclusive means small, poorly fitted or top-dose-only effect; inactive means no such curve, though single readings can be large or run the other way; tested in A549 cells; also: nearly all actives have a fitted effect of over 30% in size; inactives centre near -10
* marks the source's active call; other numbers are inactive results; i = inactive; ? = inconclusive; / = not tested or not shown; [ ] = dose if it differs, or a comment. % is scaled to controls: 0 for no effect and ±100 for the full control effect; potency is read from the fitted curve at half-maximal effect.

Compound,VACV mCherry inh,Vaccinia Venus
Cc1ccc(Cn2c(C(C)Nc3nc(-c4ccc(F)cc4)cs3)nc3cc(C(=O)NCCCO)ccc32)cc1 (configuration not stated),-25%,-21%
O=C(NC1CCCC1)C1CCCN(S(=O)(=O)c2ccc(-n3cnnn3)cc2)C1 (configuration not stated),?,2%
O=S(=O)(CCSc1ccc(C(F)(F)F)cn1)c1ccc(Cl)cc1,?,?
Cc1ccc(N=Cc2c(O)n(-c3ccc(C)cc3)c(=O)[nH]c2=O)cc1,-29%,-25%
CC(CCn1cccn1)NC(=O)c1cc(COc2ccc(F)cc2F)on1 (configuration not stated),-8%,-4%
N#CCn1c2ccccc2c2nc3ccccc3nc21,10%,9%
Nn1c(SCC(=O)Nc2ccc(Oc3ccccc3)cc2)nnc1C1CC1,i,-4%
NC(=O)c1cccc2c(=O)oc3ccccc3c12,-6%,-7%
CC1CC(C)CN(c2oc(-c3ccc(OCc4ccccc4Cl)cc3)nc2C#N)C1 (configuration not stated),26%,-10%
Cc1ccc(-c2nnn(CCC(=O)NC(C)(C)C)n2)cc1,-19%,-12%
O=C(NCCCN1CCN(c2cccc(Cl)c2)CC1)C1CCC(=O)N1Cc1ccccc1Cl (configuration not stated),/,-29%
COc1ccc(C(=O)NCc2nnc(SC)n2Cc2ccccc2)cc1,i,-9%
CC1(C(=O)NS(=O)(=O)Cc2cccc(Cl)c2)CCN1C(=O)Cc1ccc(Cl)cc1Cl (configuration not stated),39%[activator],-1%
Nc1c([N+](=O)[O-])cc(-c2cnc[nH]2)cc1[N+](=O)[O-],-21%,-9%
CC1(C)C(=O)Nc2ccccc2N1C(=O)COC(=O)c1cccs1,-6%,1%

Laid out differently: entries from further up.
NC(=O)c1cccc2c(=O)oc3ccccc3c12
  VACV mCherry inh: -6%; Vaccinia Venus: -7%
CC1CC(C)CN(c2oc(-c3ccc(OCc4ccccc4Cl)cc3)nc2C#N)C1 (configuration not stated)
  VACV mCherry inh: 26%; Vaccinia Venus: -10%
Cc1ccc(-c2nnn(CCC(=O)NC(C)(C)C)n2)cc1
  VACV mCherry inh: -19%; Vaccinia Venus: -12%
O=C(NCCCN1CCN(c2cccc(Cl)c2)CC1)C1CCC(=O)N1Cc1ccccc1Cl (configuration not stated)
  VACV mCherry inh: /; Vaccinia Venus: -29%

The list goes on.
Compound,VACV mCherry inh,Vaccinia Venus
COC(=O)[C@@]12C[C@@H](CC(=O)N3CCN(C(=O)C4CC4)CC3)C(=O)N(Cc3ccccc3)C1=CCC(C)(C)C2,2%,-10%
COc1ccc(-c2[nH]ncc2CN(Cc2nccn2C)C(C)C)c(F)c1,i,-6%
CCOc1cc(C(=O)OC(C(=O)NC(=O)NC)c2ccccc2)ccc1OCC(=O)N1CCOCC1 (configuration not stated),-12%,-8%
CCN1C(=O)N(c2cccc3ccccc23)C(C)=CC1(C)C,/,-3%
CN(C)C(=O)c1c2c(nc3ccccc13)CCCC2,1%,-4%
O=C(O)CSc1nnc(COc2cccc3cccnc23)n1-c1ccc(Cl)cc1,-3%,-7%
COc1ccc(NC(=O)N(C)C[C@H]2Oc3c(NS(=O)(=O)c4cccs4)cccc3C(=O)N([C@H](C)CO)C[C@@H]2C)cc1,i,-7%
COc1cc(OC)cc(OC2(C)CCN(Cc3ccc(OC(C)C)cc3)C2)c1 (configuration not stated),?,-16%
CCOC(=O)/C(C#N)=C/c1c(OCC)n(CC)c2ccccc12,-11%,-19%
COc1cc(/C=N/NC(=O)C[n+]2ccccc2)cc(OC)c1OC(C)=O,-9%,-13%
CSc1nc2ccccc2n1CC(=O)Nc1c(C)n(C)n(-c2ccccc2)c1=O,i,-5%
COc1ccc2nc(Nc3nc(CSc4nc5ccccc5[nH]4)cc(=O)[nH]3)nc(C)c2c1,?,?
O=C(NCCC1=CCCCC1)c1ccc2c(c1)N(Cc1ccc(Cl)cc1)C(=O)c1ccccc1S2(=O)=O,-12%,-23%
CNC(=O)NC(=O)C(C)OC(=O)CCCSc1nc2ccccc2s1 (configuration not stated),-13%,-5%
Nc1ccn([C@@H]2O[C@H](C(=O)N(CCC3=CCCCC3)CC3CC3)[C@@H](O)[C@H]2O)c(=O)n1,4%,-1%
Cc1ccc(NC(=S)N(Cc2ccc(Cl)cc2)Cc2ccc(C(=O)O)cc2)cc1Cl,-18%,?
CC(=O)c1ccccc1-c1ccc2c(c1)CC(CNC(=O)c1cc(C)on1)O2 (configuration not stated),-20%,-5%
Cc1onc(-c2ccccc2)c1C(=O)Nc1nc(-c2ccc(F)c(F)c2)cs1,i,-10%
N#CCSc1nnc(-c2ccc3c(c2)OCO3)o1,11µM*,?
CCOc1ccc(Nc2nc(N)nc(CN(C)C3CCCCC3)n2)cc1,-10%,-11%
COc1ccc(/C=N/NC(=O)c2ccn[nH]2)cc1COc1ccc(Cl)cc1,i,?
COCc1ccc(CN2Cc3cc(Cl)ccc3OC(C)C2)o1 (configuration not stated),-8%,-3%
CCCCn1nnnc1SCC(=O)Nc1ccc2c(c1)OCCO2,2%,-2%
C=CCN1C(=O)CS/C1=N\S(=O)(=O)c1ccc(Cl)cc1,-1%,14%
COCCSc1ccccc1C(=O)N1CCCC1,-15%,-2%
CCn1c(=O)c2c(nc(SCC(=O)N3CCC(C)CC3)n2C)n(C)c1=O,37%[activator],-14%
CC(C)(C)c1n[nH]c2c1CCCC2,-14%,-15%
CCCn1nc(C(=O)NC2CCCCCC2)c2ccccc2c1=O,-4%,-19%
CCOCCCN=Cc1c(O)n(Cc2ccccc2)c(=O)[nH]c1=O,/,-7%
C[C@@H]1CN([C@@H](C)CO)C(=O)c2cccc(NC(=O)Nc3ccc4c(c3)OCO4)c2O[C@H]1CN(C)S(=O)(=O)c1cn(C)cn1,i,-12%
CC1C(=O)N(Cc2cn(Cc3ccco3)nn2)CCS(=O)(=O)N1Cc1ccc(-c2cccnc2)cc1 (configuration not stated),i,-7%
CCCCc1ccc(NC(=O)CSc2nc(=O)n3cc(C)ccc3n2)cc1,-8%,-9%
CCc1nc2c(OCCOc3ccc(F)cc3)cccn2c1N(C)C(=O)C(C)C,i,-16%
O=C1NC(=O)C(=Cc2cccs2)C(=O)N1,-15%,0%
OC(c1ccc(Cl)cc1)c1ncc(-c2ccc(Cl)cc2)[nH]1 (configuration not stated),7%,-9%
CC(=O)c1ccc(C(=O)N(Cc2cccnc2)c2nc3c(Cl)cccc3s2)cc1,-21%,-18%
COc1ccc(NC(=O)c2cc([N+](=O)[O-])nn2Cc2ccccc2)c(C)c1,-11%,-9%
COc1cccc(C(=O)OCC(=O)Nc2nnc(-c3ccccc3)o2)c1,i,-16%
CCOC(=O)/C=C1\SCC(=O)N1Cc1ccc(Br)cc1,-7%,-15%
CC(C)(C)NC(=O)C(c1ccco1)N(Cc1ccc2c(c1)OCO2)C(=O)c1snc(C(N)=O)c1N (configuration not stated),-1%,0%
C#Cc1ccc(NC(=O)C2(C)CCN2C(=O)C2(c3ccccc3)CC2)cc1 (configuration not stated),i,-5%
CC1CCN(C(=O)COC(=O)CSc2ccc(C(N)=O)cc2[N+](=O)[O-])CC1,-4%,-3%
Cc1ccc(CN2C(=O)CCC2C(=O)NC2CC2)cc1 (configuration not stated),/,-13%
CN(C(=O)c1ccc2ccccc2c1)c1ccccn1,-17%,-12%
O=C(Nc1ccccc1O)c1cc(S(=O)(=O)N2CCOCC2)ccc1Cl,/,-13%
CCN1CCN(Cc2ccc(NC(=O)c3ccc(C)c(NC(=O)c4nccn4C)c3)cc2C(F)(F)F)CC1,-10%,?
CCN(CC)CC(=O)Nc1sc2c(c1C(=O)c1ccccc1C)CCC2,-11%,-8%
COc1ccc(-n2c(O)c(/C=N/n3cnnc3)c3ccccc3c2=O)cc1,/,-7%
Cc1ccc(C)c(S(=O)(=O)N2CCCOC2CNC(=O)C(=O)NCc2cccnc2)c1 (configuration not stated),-3%,-13%
CCCCCC(=O)OCc1ccc(C2=CC(=O)CC(C)(C)C2=O)cc1,i,-14%
O=C(CN(C(=O)Cn1nnc(-c2ccc(F)cc2)n1)c1ccc(F)cc1)NC1CCCC1,i,0%
CN(C)C1=NCCN1CCc1cccc(F)c1,-19%,-6%
Cc1ccc(CNC(=O)CCC2CCCN(C(=O)CCC(F)(F)F)C2)o1 (configuration not stated),i,-19%
O=C(CCn1cccn1)NCc1ccc(Cl)cc1,-5%,-6%
O=C(COC(=O)/C=C/c1ccco1)NCc1ccccc1,6%,3%
Cc1ccc2c(C)c(C(=O)NCCc3ccco3)oc2c1C,i,-10%
CC1(C)CC(=O)C2=C(C1)Nc1cc3c(cc1C2c1ccc(F)cc1)OCO3 (configuration not stated),-19%,-12%
O=c1[nH]c(=S)n(Cc2ccco2)c(O)c1C=NCc1cccs1,-8%,-3%
O=C(NC1CCN(C(=S)NCc2ccco2)CC1)C1CCCCC1,0%,-11%
CCN(C(=O)c1ccccc1Cl)c1ccccc1,-11%,-6%

In the list so far, five have two or more sulfur atoms:
Compound,VACV mCherry inh,Vaccinia Venus
O=S(=O)(CCSc1ccc(C(F)(F)F)cn1)c1ccc(Cl)cc1,?,?
COc1ccc(NC(=O)N(C)C[C@H]2Oc3c(NS(=O)(=O)c4cccs4)cccc3C(=O)N([C@H](C)CO)C[C@@H]2C)cc1,i,-7%
CNC(=O)NC(=O)C(C)OC(=O)CCCSc1nc2ccccc2s1 (configuration not stated),-13%,-5%
C=CCN1C(=O)CS/C1=N\S(=O)(=O)c1ccc(Cl)cc1,-1%,14%
O=c1[nH]c(=S)n(Cc2ccco2)c(O)c1C=NCc1cccs1,-8%,-3%

Additional entries follow:
Compound,VACV mCherry inh,Vaccinia Venus
FC(F)(F)c1ccc(CN2CCCCCC2)cc1,i,-5%
CCOC(=O)Cc1csc(NC(=O)COc2ccc(N(C)S(=O)(=O)c3ccc(C)cc3)cc2)n1,-15%,-6%
O=C(CSc1ncccn1)NC(=O)c1ccccc1,-12%,-4%
COCC(=O)Nc1cc(C(=O)N2CCc3sccc3C2)c2c(c1)nc(-c1ccncc1)n2C,-14%,-11%
O=C(Nc1nnc(-c2ccc(F)cc2)o1)c1cccc([N+](=O)[O-])c1,?,?
N#Cc1c(N)nc(SC2CCCCC2=O)c(C#N)c1-c1ccco1 (configuration not stated),-18%,-24%
Oc1ccc(Br)cc1-c1n[nH]c(=S)n1Cc1ccccc1,i,-26%
O=C(Nc1ccccn1)c1ccc2c(c1)OCCO2,-1%,3%
COC(=O)c1cc(S(=O)(=O)NC2CCN(Cc3ccccc3)CC2)cn1C,/,-11%
CCN(Cc1ccccc1)C(=O)c1ccc(CNS(=O)(=O)c2ccc(C)cc2)cc1,-11%,-22%
CC(=O)C1=C(O)C(=O)N(c2ccc(Br)cc2)C1c1ccc([N+](=O)[O-])cc1 (configuration not stated),i,-11%
CC1=C(C(=O)NCc2ccccc2Cl)C2(CCCCCC2)OC1=O,i,-3%
CCN(CC)c1ccc(/C=N/NC(=O)c2c(-c3ccccc3)noc2C)cc1,-25%,-3%
C[C@@]12CCC3c4ccc(O)cc4CCC3C1CCC2O (some centres not stated),-10%,-10%
O=C(CC1C(=O)NCCN1Cc1ccoc1)NCc1cccc(OC(F)(F)F)c1 (configuration not stated),i[7.34 µM],0%[7.34 µM]
O=C1CCCc2cc3c(ccc4ccccc43)cc21,?,1%
C/C(N=Nc1nc2ccccc2s1)=N\Nc1ccccc1O,?,-4%
Cc1ccccc1-c1cccc(CN2CCc3nnc(C(C)NC(=O)c4cccnc4)n3CC2)c1 (configuration not stated),-19%,-11%
Nc1nccc(NCCSCc2ccccc2)n1,-20%,-9%
O=C1Nc2ccccc2C1=Nc1ccc(S(=O)(=O)Nc2nccs2)cc1,i,-19%
O=C(NNc1ncccc1-n1cccc1)c1ccc(Cl)cc1,-13%,-14%
Cc1ccc(C(=O)Nc2ccc(Nc3ccccc3)cc2)cc1C,?,-11%
Cc1ccc(C(=O)OCc2cc3ccccc3[nH]c2=O)cc1,-26%,-28%
Cc1ccc(/C(N)=N/OC(=O)CN(C)S(=O)(=O)c2ccc(C)cc2)cc1,i,-8%
C=CCNC(=O)CNS(=O)(=O)c1ccc(F)cc1,-7%,-5%
COc1ccc(-c2cc(C(F)(F)F)nc(SCC(=O)N(C)Cc3ccccc3)n2)cc1OC,-14%,-13%
Cc1ncsc1C(=O)O,5%,0%
COc1ccc(OC)c(NC(=O)COC(=O)CCS(=O)(=O)c2ccc(Cl)cc2)c1,-15%,-12%
